CtBP-E1A blk: CtBP/E1A binding inhibition; AlphaScreen GST-E1A/His-CtBP binding, 1536-well; hits give low values; control for the full effect not named in the record; activity change, % (no concentration beside the values); hit rate 0.49% among 340,000; in the data active means activity change below about -65%; inconclusive means about -30% to -65%; inactive means above about -30%; also: % is scaled to controls: 0 for no effect and ±100 for the full control effect; compound concentration not given in the record
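Steps: dispense buffer (Tris pH 8.0, NaCl 300 mM, TCEP 1 mM, BSA, Tween 20); add 5X protein mix (GST-E1A, His-CtBP, 125 nM each); pin 23 nL compound; 2 h at 37 °C, dark; add 5X beads (50 ug/mL); 1 h; read.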
gsp antagonist: antagonizes gsp, the McCune-Albright syndrome mutation; gsp-mutant cells, cAMP HTRF, 30 min; control for the full effect not named in the record; Potency, µM (doses to about 76.9 µM), without a hit: at the top dose activity change, negative = inhibition, most hits filed as inhibitors; hit rate 0.4% among 340,000; AID 624288; active = falling curve of any shape with a large fitted effect; inconclusive = falling curve, mostly with a smaller effect; inactive = flat or rising curve; cell line not stated here;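 also: intracellular cAMP measured with PDE inhibitor Ro 20-1724 present during compound exposure; potency is read from the fitted curve at half-maximal effect; % is scaled to controls: 0 for no effect and ±100 for the full control effect; nearly all actives have a fitted effect of over 65% in size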
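HTRF cAMP read-out (cAMP-d2 plus anti-cAMP antibody-K in lysis buffer, 30 min RT). Before lysis, cells are exposed to compounds with […] for 30 min at 37C in DPBS containing Ca/Mg, BSA and Tween 20.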
D2 potentiator: potentiates the human D2 dopamine receptor allosterically; P14416; DiscoveRx D2 beta-arrestin cells, luminescence, 90 min; 100% = 57 uM dopamine signal; potentiation, % (no concentration beside the values); hit rate 0.23% among 360,000; AID 624464; active = potentiation of 50% or more; inconclusive = 30% to 50%; inactive = 30% or less;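 also: compound concentration not given in the record; tested on top of an EC20 dose of dopamine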
Target sequence (P14416 whole entry, looked up): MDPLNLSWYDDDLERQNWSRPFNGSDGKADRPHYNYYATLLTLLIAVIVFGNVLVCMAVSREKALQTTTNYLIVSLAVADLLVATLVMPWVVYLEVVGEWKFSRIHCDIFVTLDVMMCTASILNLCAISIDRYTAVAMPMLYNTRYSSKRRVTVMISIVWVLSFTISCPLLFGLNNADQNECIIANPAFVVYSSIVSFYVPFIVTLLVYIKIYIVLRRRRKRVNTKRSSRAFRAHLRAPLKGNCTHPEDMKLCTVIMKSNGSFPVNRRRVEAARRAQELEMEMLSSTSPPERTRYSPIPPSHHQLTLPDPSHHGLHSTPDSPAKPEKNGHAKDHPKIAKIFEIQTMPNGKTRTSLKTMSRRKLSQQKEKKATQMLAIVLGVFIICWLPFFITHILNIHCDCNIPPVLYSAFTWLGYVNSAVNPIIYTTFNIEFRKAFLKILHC
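PathHunter D2 cells, attached overnight at 37 deg C, received compound in DMSO plus dopamine at EC20 (50 nM final) for 90 min at 37 deg C. Beta-arrestin recruitment was read as luminescence after 1 h with detection reagent at ambient temperature.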
Six1-Eya2 inh: inhibitors of human Six1/Eya2 interaction; Q15475+O00167; AlphaScreen GST-Six1/His-Eya2 binding, biochemical; hits give low values; control for the full effect not named in the record; activity change, % (no concentration beside the values); hit rate 0.56% among 360,000; AID 651725; in the data active = activity change below about -65%; inconclusive = about -30% to -65%; inactive = above about -30%; also: % is scaled to controls: 0 for no effect and ±100 for the full control effect; compound concentration not given in the record
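Compounds are tested against tagged Six1 and Eya2 proteins bridged by glutathione donor and nickel acceptor beads; after a one-hour incubation at 37 °C without light, AlphaScreen emission is recorded.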
gsp ag: agonists of gsp mutant (McCune-Albright syndrome); gsp mutant cells, cAMP HTRF, 30 min; control for the full effect not named in the record; AID 624287; hit rate 0.13% among 340,000; Potency, µM (series often up to 76.9 µM), for the others: at the top dose activation (cAMP increase), usual class: activators; active = well fitted activation curve with a large enough effect; inconclusive = small, poorly fitted or top-dose-only effect, or another doubt; inactive = no such curve, though single readings can be large or run the other way; cell line not stated here;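 also: phosphodiesterase inhibitor Ro 20-1724 added with compounds to block cAMP breakdown; potency is read from the fitted curve at half-maximal effect; nearly all actives have a fitted effect of over 60% in size; about a fifth of the inactives were tested at one dose only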
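Cells in DMEM/10% FBS with G418 were pretreated with compounds in DMSO plus […] (300 uM stock) for 30 min at 37C. cAMP was measured by HTRF (cAMP-d2 plus anti-cAMP antibody-K) after 30 min at room temperature.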
D2 agonist: agonists of human D2 dopamine receptor (beta-arrestin). hit rate 0.084% among 360,000. activation, % (concentration not given with the values). DiscoveRx PathHunter D2 beta-arrestin, luminescence, 90 min; 100% = 57 uM dopamine signal. P14416; in the data active = activation above about 40%; inconclusive = about 15% to 40%; inactive = below about 15%; also: compound concentration not given in the record; the text of the record calls up to 30% inactive
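DiscoveRx PathHunter D2 beta-arrestin cells (2,100/well) attached overnight, then compound-stimulated 90 min at 37 C in HBSS/10 mM HEPES/0.1% Tween-20 buffer; beta-galactosidase complementation read by luminescence after 1 h at ambient temperature. Dopamine 57 uM final (EC100) as control.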
Starred values were filed as active, the others as inactive; ? = inconclusive; / = not tested or not shown; [ ] = another dose, or the depositor's remark.

SMILES | CtBP-E1A blk | gsp antagonist | D2 potentiator | Six1-Eya2 inh | gsp ag | D2 agonist
O=S(=O)(Nc1ccc(O)c(Sc2nc3ccccc3s2)c1)c1cccc2ccccc12 | -4 | -22% | ? | -14 | -13% | 11
CCOC(=O)c1nc(NNC(C)=O)sc1C | 4 | -24% | -2 | 31 | -4%[15.4 µM] | -3.7
COc1cc(-c2cc3nc(NC4CCCCC4)ccn3n2)cc(OC)c1OC | -7 | / | 7 | -11 | / | 7.5
CCOc1ccc(CN(C)C(=O)CNC(=O)c2ccccc2)cc1 | -18 | 1% | -4 | 3 | -1% | -5.8
CC(C(=O)Nc1cccnc1)c1ccc([N+](=O)[O-])cc1 (stereo not given) | 0 | 1% | -2 | 5 | 5% | 7.5
Cc1ccc(NC(=O)C(OC(=O)c2ccc(NC(N)=O)cc2)c2ccccc2)cc1Cl (stereo not given) | -10 | -20% | -10 | -8 | -25% | 2.4
O=C(NCc1ccccn1)C1CCN(C(=O)c2cc3sccc3n2Cc2ccc(F)cc2)CC1 | / | -16% | -5 | 10 | -7% | -3.7
N#C/C(=C/Nc1ccccc1C(=O)O)C(N)=O | / | 8% | -11 | -8 | -27% | -4.1
CC(C)Nc1nc(NCCN2CCCC2)c2sc(-c3ccccc3)cc2n1 | -27 | / | -2 | -22 | / | 13
CCC(C)C(N)C(=O)NC(CCC(=O)OCc1ccccc1)C(N)=O (stereo not given) | 1 | 4% | 3 | 0 | 24% | -1.4
CN(C(=O)CN1C(=O)c2ccc([N+](=O)[O-])cc2C1=O)C1CCCCC1 | -2 | 7% | -1 | -12 | -6%[15.4 µM] | 8.9
CCn1ncc(C(=O)Nc2ccc([N+](=O)[O-])cc2OC)c1C | / | 4% | -4 | -1 | ? | 1.5
Cc1cccc(C(=O)NC(=S)Nc2ccc3[nH]c(=O)[nH]c3c2)c1 | -2 | -3% | -13 | -3 | -11%[15.4 µM] | -2.6
CNC(=O)CSc1nnnn1-c1cc(C)ccc1C | 6 | 7% | -13 | 1 | -4% | -3.6
CC(=O)Nc1cnc(NC(=O)c2cccc(F)c2)cc1C | 0 | 20% | -20 | 0 | 0% | -3.3
CCN1CCN(S(=O)(=O)c2ccc(Cl)c(C(=O)Nc3ccccc3N3CCOCC3)c2)CC1 | -21 | 5% | -1 | 6 | 4% | 4.4
CC(=O)NC(C)(c1ccccc1)c1nc(-c2cccc3cccnc23)cs1 (stereo not given) | 1 | / | -3 | 0 | / | -2.8
Fc1cccc(CSc2nc3ccncc3[nH]2)c1 | -6 | 7% | -4 | 4 | ? | -7.3
O=C(Cn1c2ccc(F)cc2c2nc3n(c(=O)c21)CCS3)Nc1ccccc1C(F)(F)F | 6 | 7% | -17 | 4 | 3%[15.4 µM] | 1.5
O=C(CN(C(=O)Cn1nnc(-c2cccs2)n1)c1cnc2ccccc2c1)NCC1CCCO1 (stereo not given) | -7 | 3% | -8 | 1 | -1% | -4.0
COc1ccc2cc1Oc1ccc(cc1)C[C@H]1c3c(cc4c(c3Oc3cc5c(cc3OC)CCN(C)[C@@H]5C2)OCO4)CCN1C | ? | -21% | -22 | -11 | / | -4.4
Cc1cccc(NC2=NC(=S)N(c3ccc(C(=O)O)cc3)C23CCCCC3)c1 | -12 | -6% | 2 | 6 | 1% | -3.6
O=C(NCCC(c1ccccc1)c1ccccc1)c1ccc(Br)o1 | 0 | -19% | -22 | -1 | 7% | -5.4
COc1cc(/C=N/NC(=O)c2ccccc2O)ccc1OC(=O)CC1SC(=O)NC1=O (stereo not given) | -15 | -4% | -11 | -16 | 24% | -6.1
CCOC(=O)Cn1c(N2CCCCCC2)nc2c1c(=O)[nH]c(=O)n2C | -4 | -9% | -8 | 13 | ? | 0.2

More records.
SMILES | CtBP-E1A blk | gsp antagonist | D2 potentiator | Six1-Eya2 inh | gsp ag | D2 agonist
COc1ccc(Br)cc1S(=O)(=O)N1CC(C)OC(C)C1 (stereo not given) | -2 | 5% | -4 | 7 | -5% | 0.0
C=CCNC(=O)C1CC1(c1ccc(C)cc1)c1ccc(C)cc1 (stereo not given) | 2 | -5% | -10 | -8 | -7%[15.4 µM] | -3.2
COC(=O)C1=C(C)N(Cc2ccccc2)C(=S)N[C@H]1c1cccc(C(F)(F)F)c1 | -19 | -2% | -7 | -5 | -28% | -0.2
O=C(NCCN1CCOCC1)c1cc(S(=O)(=O)NCCCN2CCCC2=O)ccc1Cl | 3 | 15% | 7 | 5 | 9% | -3.0
COc1ccc(CN2CSC(=S)N(Cc3ccc(OC)cc3)C2)cc1 | / | -7% | -1 | 4 | 22% | 2.0
CC(C)(C)c1ccc(OCc2ccc(C(=O)N/N=C/c3ccc([N+](=O)[O-])cc3)o2)cc1 | 0 | -14% | -1 | 1 | 14% | 1.1
CCSC1(SCC)N=C(N)C2(C#N)C(c3ccccc3)NC(C)=C(C)C12C#N (stereo not given) | 5 | 2% | -12 | -9 | -15% | -4.0
CC1CCN(S(=O)(=O)c2cc(C(=O)Nc3ccccn3)ccc2Br)CC1 | -4 | -4% | 29 | -12 | 1% | -0.4
O=C(c1cccc(S(=O)(=O)N2CCOCC2)c1)N1CCCc2ccccc21 | 3 | -20% | -4 | -2 | 2% | -1.4
COc1ccc(OC)c(NC(=O)COC(=O)/C=C/c2ccc(Cl)cc2)c1 | -8 | 5% | 7 | -4 | -5%[15.4 µM] | 1.7
O=C(COc1ccccc1F)Nc1c2c(nn1-c1ccccc1)CS(=O)(=O)C2 | -1 | -2% | -19 | 0 | 7% | -4.3
CCN(CC)CCNC(=O)C1(O)c2cc(Br)ccc2NC(=O)N1c1ccccc1 (stereo not given) | 0 | 14% | -5 | 7 | -5% | -1.3
O=C(C1CCC(=O)N(C2CC2)C1)N1CCC(Oc2cccc(F)c2)CC1 (stereo not given) | 0 | 0% | -5 | -16 | -20% | -2.0
CCCOc1ccccc1NS(=O)(=O)c1ccc2[nH]c(=O)[nH]c2c1 | 19 | -16% | -10 | 2 | 7%[15.4 µM] | 1.4
O=C(NC1=NCCS1)c1csc2ccccc12 | 2 | 11% | -15 | 4 | 10% | -3.2
Cc1ccc(Nc2nc(=O)[nH]nc2C)cc1 | -1 | -1% | 10 | 3 | ? | -0.7
O=C(CC1SC(N2CCCCC2)=NC1=O)Nc1cccc(C(=O)NCc2ccccc2)c1 (stereo not given) | 2 | -8% | -4 | -4 | 25%[15.4 µM] | 2.3
CCCN(C(=O)CSc1n[nH]c(-c2ccc(OC)cc2)n1)c1c(N)n(Cc2ccccc2)c(=O)[nH]c1=O | 6 | 5% | -41 | 3 | -1%[15.4 µM] | -3.6
CC1CC(C)CN(C(=O)C2CCC(CNc3c(N4CCCCC4)c(=O)c3=O)CC2)C1 (stereo not given) | / | -1% | -12 | 2 | -3% | -6.5
CCC(c1nnc(SCC(=O)N(C)c2ccccc2)n1Cc1ccccc1)N(C)C (stereo not given) | 5 | -6% | -18 | 2 | -56%[inhibitor] | -2.9
Cc1cccc(NC(=O)c2cc(=O)c3ccccc3o2)n1 | 0 | -7% | -13 | 1 | -8% | -1.8
O=C(O)C1C2C=CC(C2)C1C(=O)N1CCc2ccccc21 (stereo not given) | 3 | 2% | 5 | 2 | -26% | -1.0
COc1ccc(Cl)cc1N1C(=O)CN(Cc2cc(OC)c(OC)c(OC)c2)C1=S | / | -10% | -1 | -4 | 0% | -0.2
O=C(COC(=O)CN1C(=O)C2CCCCC2C1=O)Nc1cc(S(=O)(=O)N2CCOCC2)ccc1Cl (stereo not given) | 0 | -10% | -9 | 1 | -10% | -5.0
O=C(N1CCOCC1)N1CCN(Cc2ccccc2)CC1 | 4 | -1% | 15 | 0 | -16% | -0.8

New compounds follow.
SMILES | CtBP-E1A blk | gsp antagonist | D2 potentiator | Six1-Eya2 inh | gsp ag | D2 agonist
Cc1cc(NC(=O)COc2ccccc2C#N)no1 | -4 | 32µM* | -4 | 3 | -14% | -6.7
O=C(/C=C/c1cccc(OCc2ccccc2)c1)c1cccnc1 | 8 | 3% | 1 | 2 | -26% | 7.7
CCCCN(Cc1ccccc1)C(=O)C1CCC(=O)N(CCc2ccccn2)C1 (stereo not given) | 6 | 8% | -7 | 12 | 16% | -0.7
COC(=O)c1[nH]c2ccccc2c1NC(=O)C(C)N1CC(C)OC(C)C1 (stereo not given) | -2 | 14% | -6 | 0 | -4%[15.4 µM] | 0.6
COc1cccc(C(=O)Nc2cc3c(cc2Br)OCCCO3)c1 | 0 | -31% | -20 | 35 | -3% | -0.5
O=C(CCc1nnc(CCc2ccccc2)o1)NC(c1cccnc1)C(F)(F)F (stereo not given) | 4 | 5% | -5 | 9 | 1% | -4.7
COc1ccccc1C(=O)Nc1c(C(=O)N2CCN(C)CC2)oc2ccccc12 | / | 6% | -15 | -5 | -15% | -4.6
CC(=C/C(=O)O)/C(=C\c1ccc(Br)o1)C(=O)O | 3 | 7% | -1 | -3 | -15%[15.4 µM] | -4.4
CCc1ccc(NC(=O)c2noc3c2CCC3)cc1 | 6 | -1% | 20 | -6 | 0% | -2.1
O=C(CN1CCCCC1)Nc1cccc(Br)c1 | 0 | 7% | -33 | -3 | ? | -3.3
CSc1ccc(CNc2ccc(C)c(C)c2)cc1 | ? | -10% | -6 | ? | -19% | -0.1
COc1ccccc1CCNC(=O)C(=O)NCC1OCCCN1S(=O)(=O)c1ccc(F)cc1C (stereo not given) | -1 | -11% | -8 | 0 | 2%[15.4 µM] | -0.5
C=CCNC(=S)N/N=C/c1ccc(-c2cccc([N+](=O)[O-])c2)o1 | 4 | -1% | 2 | -4 | -15% | 0.2
O=C(CCC(=O)N(CC(=O)NC1CCCC1)C1CCCC1)Nc1ccccn1 | 0 | 4% | 0 | 14 | ? | 3.8
O=C(COc1ccccc1Cl)NCc1ccco1 | -2 | 6% | 1 | 0 | -1% | -2.5
O=C(Cc1ccc(Cl)cc1)Nc1cccnc1Cl | 3 | / | -2 | -1 | ? | -4.0

Among those listed so far, these have a furan ring, fused or not.
SMILES | CtBP-E1A blk | gsp antagonist | D2 potentiator | Six1-Eya2 inh | gsp ag | D2 agonist
O=C(NCCC(c1ccccc1)c1ccccc1)c1ccc(Br)o1 | 0 | -19% | -22 | -1 | 7% | -5.4
CC(C)(C)c1ccc(OCc2ccc(C(=O)N/N=C/c3ccc([N+](=O)[O-])cc3)o2)cc1 | 0 | -14% | -1 | 1 | 14% | 1.1
COc1ccccc1C(=O)Nc1c(C(=O)N2CCN(C)CC2)oc2ccccc12 | / | 6% | -15 | -5 | -15% | -4.6
CC(=C/C(=O)O)/C(=C\c1ccc(Br)o1)C(=O)O | 3 | 7% | -1 | -3 | -15%[15.4 µM] | -4.4
C=CCNC(=S)N/N=C/c1ccc(-c2cccc([N+](=O)[O-])c2)o1 | 4 | -1% | 2 | -4 | -15% | 0.2
O=C(COc1ccccc1Cl)NCc1ccco1 | -2 | 6% | 1 | 0 | -1% | -2.5

Screens (PubChem)
